# Screening results from PubChem.
# Ecoli rRNA inh: selective bacterial rRNA inhibition in E. coli; AID 720706; 350,000 tested, 1.6% active; E. coli WT GFP vs humanized-ribosome RFP mutants, fluorescence, 24 h; active compounds read low; DMSO median 0, no signal -100; GFP signal change (wild-type ribosome), % (no concentration beside the values);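 active = significant combined selectivity score with lowered wild-type GFP, culture density cut under 30%, mutant RFP and density less affected; inactive = any of these conditions unmet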; also: one replicate is shown; some compounds called inactive have numbers as strong as hits
# AF4-AF9 inh: blocks AF4 peptide binding to human AF9. AlphaScreen, biotin-AF4 peptide binding to FLAG-AF9. inhibition, % at 10 µM. 350,000 tested, 0.47% active. AID 651704;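 active = every replicate reaching a set inhibition limit, whatever the replicate mean, cut at about 25% in these data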;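 also: 0% = plate neutral control median and 100% = total signal loss; the record names both 10 and 1 µM as test concentration; the first replicate is given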
# Target sequence (P42568 whole entry, looked up): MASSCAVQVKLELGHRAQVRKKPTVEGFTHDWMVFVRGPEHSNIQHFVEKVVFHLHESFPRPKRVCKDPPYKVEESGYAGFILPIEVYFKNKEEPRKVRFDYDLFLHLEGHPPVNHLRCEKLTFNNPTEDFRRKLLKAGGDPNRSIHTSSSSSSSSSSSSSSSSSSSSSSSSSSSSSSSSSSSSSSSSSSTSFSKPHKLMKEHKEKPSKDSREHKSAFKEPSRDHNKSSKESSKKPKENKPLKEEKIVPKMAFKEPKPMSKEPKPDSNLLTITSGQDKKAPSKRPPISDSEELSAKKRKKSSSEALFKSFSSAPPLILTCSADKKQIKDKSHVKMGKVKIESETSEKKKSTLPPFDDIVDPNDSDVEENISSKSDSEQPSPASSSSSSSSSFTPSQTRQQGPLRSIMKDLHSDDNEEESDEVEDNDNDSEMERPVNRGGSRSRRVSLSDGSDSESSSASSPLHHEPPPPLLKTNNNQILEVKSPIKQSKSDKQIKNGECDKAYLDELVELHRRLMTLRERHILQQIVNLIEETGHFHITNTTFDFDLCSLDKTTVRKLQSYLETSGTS
# Ecoli rRNA inh OD600: recorded beside Ecoli rRNA inh, whose call it bears; OD600 change, %; measured here: OD600 growth;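 optical density of the mix in the first replicate; 0 = DMSO median and -100 = no signal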
# Ecoli rRNA inh RFP: further read-out of Ecoli rRNA inh, marked with its call; RFP signal change, %; measured here: RFP humanized mutant strains;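 first replicate; 0 = DMSO median and -100 = no signal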
# An asterisk follows results filed as active. The list is partial; count on the stated rates, not on these rows.
SMILES,Ecoli rRNA inh,Ecoli rRNA inh OD600,Ecoli rRNA inh RFP,AF4-AF9 inh
COc1ccc(NC(=O)Nc2ccc3c(c2)C(=O)N([C@@H](C)CO)C[C@@H](C)[C@@H](CN(C)S(=O)(=O)c2ccc(Cl)cc2)O3)cc1,0,-15,-0.7,0.9
COc1ccc(NC(=O)N(C)C[C@@H]2Oc3ccc(NS(=O)(=O)c4ccc(F)cc4)cc3CC(=O)N([C@@H](C)CO)C[C@@H]2C)cc1,5,7,-1.2,-1.3
CN(C)CCCNC(=O)C[C@H]1CC[C@@H]2[C@H](COC[C@@H](O)CN2CC2CCCCC2)O1,1,-1,-4.1,3.9
COCC(=O)Nc1ccc2c(c1)C(=O)N(C)[C@H]1CC[C@@H](CC(=O)NCc3ccccc3F)O[C@@H]1CO2,3,7,-0.5,-12
CCCNC(=O)Nc1ccc2c(c1)C(=O)N(C)[C@@H]1CC[C@@H](CC(=O)OC)O[C@@H]1CO2,1,4,-3.0,0.9
CC=Cc1ccc2n(c1=O)C[C@H]1[C@H](CO)[C@@H](C(=O)NCc3ccccc3)[C@@H]2N1S(C)(=O)=O (mixture of isomers),0,-2,-5.3,0.1
C[C@@H]1CCCCO[C@H](CN(C)C(=O)CCC(F)(F)F)[C@H](C)CN([C@H](C)CO)C(=O)c2cc(NS(=O)(=O)c3ccc(F)cc3)ccc2O1,2,-7,3.1,6.1
COc1cccc(S(=O)(=O)N[C@@H]2C=C[C@@H](CC(=O)NC3CCC3)O[C@@H]2CO)c1,1,11,-1.9,-0.7
CCCCNC(=O)c1nc(C2CCN(S(=O)(=O)c3ccccc3C(F)(F)F)CC2)oc1-c1ccccc1,-1,11,1.9,-4.4
Cc1cc(C(=O)Nc2cccc3c2O[C@H](CN(C)S(=O)(=O)c2cn(C)cn2)[C@@H](C)CN([C@@H](C)CO)C3=O)n(C)n1,-5,-19,5.4,-3.0
N#C[C@@H]1[C@@H](c2ccccc2C2=CCCCC2)[C@@H](CO)N1C(=O)c1cccc(F)c1,5,-45,14,-0.5
C[C@@H]1CN([C@@H](C)CO)C(=O)c2cc(-c3ccccc3F)cnc2O[C@@H]1CN(C)C(=O)CN(C)C,0,7,-2.6,-4.2
C[C@H](CO)N1C[C@H](C)[C@H](CN(C)Cc2ccc(Oc3ccccc3)cc2)Oc2ccc(NC(=O)Nc3ccc4c(c3)OCO4)cc2CC1=O,-4,13,1.2,4.8
C[C@@H]1CCCCO[C@@H](CN(C)C(=O)CCCN(C)C)[C@@H](C)CN([C@@H](C)CO)C(=O)c2cc(NS(=O)(=O)c3ccccc3)ccc2O1,4,1,-2.2,-0.4
C[C@@H]1CN([C@H](C)CO)C(=O)c2cccc(NC(=O)Nc3cccc4ccccc34)c2O[C@@H]1CN(C)Cc1ccc(C(=O)Nc2ccccc2N)cc1,-3,-10,0.3,-6.7
C[C@@H]1CN([C@@H](C)CO)C(=O)Cc2cc(NC(=O)C3CC3)ccc2O[C@@H]1CN(C)C(=O)Nc1ccc(F)cc1,5,10,-1.7,-12
CCC(=O)N1CC(=O)N2[C@H](C1)[C@H](c1ccc(C#Cc3cccnc3)cc1)[C@@H]2CO,2,11,-5.0,-12
O=C(NCCCN1CCOCC1)[C@@H]1N[C@@H]2c3ccc(C4=CCCC4)c(=O)n3C[C@@H]2[C@H]1CO,0,15,-1.1,3.6
Cc1ccc(S(=O)(=O)N[C@@H]2CC[C@@H](CC(=O)N3CCC(Cc4ccccc4)CC3)O[C@H]2CO)cc1,4,-27,32,-0.8
Cc1ccc(S(=O)(=O)N(C)C[C@H]2Oc3ccc(NC(=O)Nc4ccc(C(F)(F)F)cc4)cc3CC(=O)N([C@@H](C)CO)C[C@H]2C)cc1,2,-2,-0.2,-3.3
COc1ccc(S(=O)(=O)Nc2ccc3c(c2)C(=O)N([C@@H](C)CO)C[C@H](C)[C@@H](CN(C)S(=O)(=O)c2ccc(OC)cc2)O3)cc1,-2,-5,-0.4,-0.1
O=C(NCC[C@H]1CC[C@@H](NC(=O)C2CC2)[C@@H](CO)O1)c1cnccn1,-1,-1,-1.4,-0.5
Clc1cccc(Cc2c(-c3cccc(Cl)c3)nc3c4ccccc4ccn23)c1,38,17,21,0.5
COC(=O)c1cc(S(=O)(=O)NCC(C)c2ccccc2)c[nH]1 (configuration not stated),-1,1,3.1,1.9
O=C(C[C@H]1C[C@H]2c3cc(NC(=O)Cc4ccncc4)ccc3O[C@H]2[C@@H](CO)O1)NCCc1ccccc1,0,5,1.5,1.9
C[C@H](CO)N1C[C@H](C)[C@@H](CN(C)Cc2cccc(C(=O)O)c2)Oc2ncc(C#CCN(C)C)cc2C1=O,7,13,-4.1,-3.9
Cn1cnc(S(=O)(=O)N2C[C@@H](O)COC[C@H]3O[C@H](CC(=O)NCc4ccc(F)cc4)CC[C@@H]32)c1,7,9,-2.2,-0.7
O=C(C[C@H]1C[C@@H]2c3cc(NC(=O)C4CCOCC4)ccc3O[C@@H]2[C@@H](CO)O1)NC1CCCC1,2,9,-0.7,1.3
C[C@H]1CCCCO[C@H](CN(C)C(=O)Nc2ccc(C(F)(F)F)cc2)[C@@H](C)CN([C@@H](C)CO)C(=O)c2cc(NC(=O)Nc3cccc4ccccc34)ccc2O1,-1,-3,-2.1,-2.0
CN1CCN(C(=O)C[C@H]2CC[C@@H]3[C@H](COC[C@H](O)CN3C(=O)Nc3ccc(F)cc3)O2)CC1,-3,1,-3.1,-1.9
CCC(=O)N1C[C@H](C)[C@@H](OC)CN(C)C(=O)c2cc(NC(=O)Nc3ccc(Cl)cc3)ccc2OC[C@@H]1C,-4,-2,1.8,0.3
O=C(C[C@H]1CC[C@H]2[C@@H](COC[C@@H](O)CN2C(=O)Cc2ccccc2)O1)NC1CCCC1,1,4,1.1,-18
C[C@@H]1CN([C@H](C)CO)C(=O)c2cc(NS(=O)(=O)c3ccc(Cl)cc3)ccc2O[C@H]1CN(C)C,5,14,0.2,-15
C[C@H]1CN([C@@H](C)CO)S(=O)(=O)c2ccc(-c3cccc(C#N)c3)cc2O[C@H]1CN(C)C(=O)C1CC1,-8,-16,-0.2,0.3
COc1ccccc1NS(=O)(=O)c1cc(NC(=O)c2ccccc2C)ccc1N1CCOCC1,1,-7,0.6,1.8
N#Cc1ccc(-c2ccc3c(c2)[C@H]2[C@H](CCN2Cc2ccc4c(c2)OCO4)[C@H](CO)N3)cc1,27,-14,-0.2,-0.9
O=C(C[C@H]1C=C[C@H](NS(=O)(=O)c2ccccc2)[C@@H](CO)O1)NCc1ccccc1F,0,5,-1.0,-4.9
COc1ccc(C#Cc2ccc([C@@H]3[C@H]4CN(S(=O)(=O)c5ccccc5)CCCCN4[C@H]3CO)cc2)cc1,9,20,1.1,-1.7
CN(C)CC(=O)N1CC2(C1)[C@H](c1ccccc1)[C@H](CO)N2S(C)(=O)=O,2,4,-1.2,-0.6
CCCC#Cc1cnc2c(c1)C(=O)N([C@H](C)CO)C[C@H](C)[C@H](CN(C)C(=O)c1cccnc1)O2,0,1,0.3,-3.0
O=C(Nc1nccs1)c1ccc2sc([C@H]3C[C@H](O)[C@@H](CO)O3)nc2c1,-1,-2,-7.9,0.1
CN(C)CC(=O)N[C@@H]1CC[C@H](CC(=O)NCc2ccc(Cl)cc2)O[C@@H]1CO,-2,-13,1.6,-14
O=C(C[C@@H]1C[C@@H]2c3cc(NC(=O)Nc4ccccc4F)ccc3O[C@@H]2[C@@H](CO)O1)NCC1CC1,0,0,-2.4,0.1
O=C(C[C@@H]1CC[C@@H](NS(=O)(=O)c2ccccc2)[C@H](CO)O1)N1CCc2ccccc2C1,2,-1,-1.7,-4.6
C[C@H](NC(=O)C[C@@H]1C=C[C@H](NC(=O)C2CCC2)[C@@H](CO)O1)c1ccccc1,1,-1,-1.1,-2.1
O=C(c1ccccc1F)N1CC(=O)N2[C@@H](CO)[C@@H](c3ccc(C#Cc4ccccc4)cc3)[C@@H]2C1,-39,-62,3.7,-2.6
COCC(=O)N1[C@@H](C#N)[C@H](c2ccc(C#Cc3ccccc3F)cc2)[C@@H]1CO,4,-21,0.7,-1.6
Cc1ccc(S(=O)(=O)N[C@@H]2C=C[C@@H](CC(=O)NCCc3ccncc3)O[C@@H]2CO)cc1,3,7,-1.9,-0.9
C[C@H](NC(=O)N(C)C[C@@H]1OCc2ccccc2-c2ccccc2C(=O)N([C@@H](C)CO)C[C@@H]1C)c1ccccc1,3,4,-3.5,-5.1
O=C(Nc1cccc(F)c1)N[C@@H]1CC[C@H](CCNS(=O)(=O)c2cccc(Cl)c2)O[C@H]1CO,-6,-11,3.6,0.7

# Gathered by group, those above with two or more sulfur atoms.
SMILES,Ecoli rRNA inh,Ecoli rRNA inh OD600,Ecoli rRNA inh RFP,AF4-AF9 inh
COc1ccc(S(=O)(=O)Nc2ccc3c(c2)C(=O)N([C@@H](C)CO)C[C@H](C)[C@@H](CN(C)S(=O)(=O)c2ccc(OC)cc2)O3)cc1,-2,-5,-0.4,-0.1
O=C(Nc1nccs1)c1ccc2sc([C@H]3C[C@H](O)[C@@H](CO)O3)nc2c1,-1,-2,-7.9,0.1

# Next records:
SMILES,Ecoli rRNA inh,Ecoli rRNA inh OD600,Ecoli rRNA inh RFP,AF4-AF9 inh
O=C(C[C@@H]1CC[C@H]2NC[C@H](O)COC[C@@H]2O1)NC1Cc2ccccc2C1,2,-4,-4.0,0.3
C[C@@H]1CN([C@@H](C)CO)C(=O)Cc2cc(NC(=O)Cc3cn(C)c4ccccc34)ccc2O[C@H]1CN(C)Cc1ccc(C(F)(F)F)cc1,5,3,3.4,-4.4
O=C(NC1Cc2ccccc2C1)[C@H]1[C@H](CO)[C@H]2Cn3c(ccc(C4=CCCCC4)c3=O)[C@H]2N1CC1CC1,-8,-15,14,7.3
CCCNC(=O)NC[C@H]1[C@H](c2ccc(C3=CCCCC3)cc2)[C@H](CO)N1C(C)=O,-5,-27,6.7,6.3
C[C@@H]1CN([C@H](C)CO)C(=O)CCCn2nncc2CO[C@@H]1CN(C)Cc1ccc2c(c1)OCO2,1,5,-0.3,-2.8
COc1ccc(NC(=O)Nc2ccc3c(c2)CC(=O)N([C@@H](C)CO)C[C@@H](C)[C@@H](CN(C)S(C)(=O)=O)O3)cc1,7,9,0.2,-2.2
COC(=O)C[C@H]1C=C[C@H](NS(=O)(=O)c2ccccc2F)[C@@H](CO)O1,5,8,-0.5,-2.9
CCC1SC(CC)C(=O)N(CC(=O)NC2CCCCC2)C1=O (configuration not stated),2,-11,0.8,-1.2
CC=Cc1ccc2n(c1=O)C[C@@H]1[C@@H](CO)[C@H](C(=O)NCCC)[C@H]2N1C(=O)c1ccncc1 (mixture of isomers),2,4,-2.3,-3.3
CCCOc1ccc(F)cc1-c1cc(C(=O)NC(C)C)[nH]n1,-8,-20,2.2,-0.1

# An excerpt from above in order of their number in Ecoli rRNA inh, low to high.
SMILES,Ecoli rRNA inh,Ecoli rRNA inh OD600,Ecoli rRNA inh RFP,AF4-AF9 inh
CCCOc1ccc(F)cc1-c1cc(C(=O)NC(C)C)[nH]n1,-8,-20,2.2,-0.1
CCCNC(=O)NC[C@H]1[C@H](c2ccc(C3=CCCCC3)cc2)[C@H](CO)N1C(C)=O,-5,-27,6.7,6.3
C[C@@H]1CN([C@H](C)CO)C(=O)CCCn2nncc2CO[C@@H]1CN(C)Cc1ccc2c(c1)OCO2,1,5,-0.3,-2.8
O=C(C[C@@H]1CC[C@H]2NC[C@H](O)COC[C@@H]2O1)NC1Cc2ccccc2C1,2,-4,-4.0,0.3
C[C@@H]1CN([C@@H](C)CO)C(=O)Cc2cc(NC(=O)Cc3cn(C)c4ccccc34)ccc2O[C@H]1CN(C)Cc1ccc(C(F)(F)F)cc1,5,3,3.4,-4.4
COc1ccc(NC(=O)Nc2ccc3c(c2)CC(=O)N([C@@H](C)CO)C[C@@H](C)[C@@H](CN(C)S(C)(=O)=O)O3)cc1,7,9,0.2,-2.2

# Next part.
SMILES,Ecoli rRNA inh,Ecoli rRNA inh OD600,Ecoli rRNA inh RFP,AF4-AF9 inh
CCCc1nc2ccc(Br)cn2c1Cc1cccc(Cl)c1,-22*,-10*,0.6*,4.0
C[C@H]1CN([C@@H](C)CO)C(=O)c2cccc(NC(=O)c3nc4ccccc4s3)c2O[C@@H]1CN(C)CC1CC1,-11,-2,2.6,3.7
C[C@H]1CN([C@@H](C)CO)C(=O)c2cc(-c3ccncc3)cnc2O[C@@H]1CN(C)C(=O)C1CCCCC1,1,5,-3.4,-1.8
O=C(Cc1ccccc1)N1CC[C@@H]2[C@H]1c1cc(C#Cc3ccccc3)ccc1N[C@@H]2CO,-2,2,4.5,4.3
COCC(=O)Nc1ccc2c(c1)OC[C@H](C)N(C(=O)COC)C[C@@H](C)[C@@H](OC)CN(C)C2=O,2,0,-1.5,-3.3
C[C@H](CO)N1C[C@H](C)[C@@H](CN(C)S(C)(=O)=O)Oc2cc(-c3cccc(F)c3)ccc2S1(=O)=O,-12,-20,-1.8,-1.0
COc1ccc(NC(=O)Nc2cccc3c2O[C@H](CN(C)S(=O)(=O)c2cn(C)cn2)[C@H](C)CN([C@@H](C)CO)C3=O)cc1,6,4,-2.0,-1.0
